Calb FLC: C. albicans growth modulation with fluconazole; C. albicans CaCi-2 (fluconazole-resistant clinical isolate) + fluconazole, Alamar Blue growth, 48 h; growth inhibition, % (concentration not given with the values); 300,000 compounds, 0.57% hits; AID 1979;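 active means most replicates above 75%; inconclusive means exactly half above 75%; inactive means most below 75%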;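 further: all wells also contain fluconazole at 8 µg/ml as a sub-toxic cotreatment; 0% = median of DMSO wells and 100% = median of geldanamycin control wells; wells of about 8 µL received 7.5 nL stock; the first replicate is given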
Vif TR-FRET: inhibitors of Vif binding to APOBEC3G peptide, primary screen, biochemical, TR-FRET, GST-Vif 1-94, biotin-A3G peptide, dose response retest (AID 1117319); TR-FRET GST-Vif / biotin-A3G peptide binding; higher % means a stronger effect; test concentration not given here; strong numbers were not always called active; 260,000 compounds, 0.57% hits; inhibition, %; hits with a dose series show IC50 in µM;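 active means above the screen mean plus three standard deviations and confirmed in dose response; inconclusive means results disagree or hit not tested in dose response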;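 further: Vif residues 1-94 fused to GST binding biotinylated APOBEC3G peptide 110-148; 0% = full assay without inhibitor and 100% = GST in place of GST-Vif; retest series ran down from 100 µM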
HNF4A DNA FP: change in binding of human HNF4 alpha to DNA; P41235; HNF4a-FITC DNA binding, fluorescence polarization, 1 h; activity change, % at 10 µM; 360,000 compounds, 0.3% hits; AID 1224865; in the data active means activity change above about 30%, passing the limit was not always enough;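 further: controls were the assay level and a saturating level of protein; the project sought stronger binding though the title names inhibitors; some compounds called inactive have numbers as strong as hits; positive values seem to mean higher polarization but the record does not say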
Target sequence (P41235 whole entry, looked up): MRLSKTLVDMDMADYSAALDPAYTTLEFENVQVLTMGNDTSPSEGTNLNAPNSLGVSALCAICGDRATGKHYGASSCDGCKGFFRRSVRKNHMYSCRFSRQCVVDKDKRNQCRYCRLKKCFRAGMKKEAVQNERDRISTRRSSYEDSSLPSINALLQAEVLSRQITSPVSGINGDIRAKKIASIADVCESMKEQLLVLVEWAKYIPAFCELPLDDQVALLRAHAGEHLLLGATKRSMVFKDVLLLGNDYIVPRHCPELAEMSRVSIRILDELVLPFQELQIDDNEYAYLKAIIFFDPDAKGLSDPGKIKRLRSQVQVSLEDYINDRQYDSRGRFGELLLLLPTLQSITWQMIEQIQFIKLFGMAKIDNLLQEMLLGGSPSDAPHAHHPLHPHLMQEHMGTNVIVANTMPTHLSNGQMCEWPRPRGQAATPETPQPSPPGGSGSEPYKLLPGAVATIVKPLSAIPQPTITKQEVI
B2AR ag: human beta-2 adrenergic receptor agonism by FAP; P07550; Am2.2-beta2AR cells, FAP receptor internalization, flow cytometry; reference of the scale not given here; response, % (test concentration not listed); 340,000 compounds, 0.43% hits; AID 504454;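 active means response above a set limit, near 3 SD of response in nonfluorescent compounds, cut at about 42% in these data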;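 further: stock transfer was 100 nL into about 11 µL; a reference agonist was the positive control; negative values mostly stem from fluorescent compounds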
Target sequence (P07550 whole entry, looked up): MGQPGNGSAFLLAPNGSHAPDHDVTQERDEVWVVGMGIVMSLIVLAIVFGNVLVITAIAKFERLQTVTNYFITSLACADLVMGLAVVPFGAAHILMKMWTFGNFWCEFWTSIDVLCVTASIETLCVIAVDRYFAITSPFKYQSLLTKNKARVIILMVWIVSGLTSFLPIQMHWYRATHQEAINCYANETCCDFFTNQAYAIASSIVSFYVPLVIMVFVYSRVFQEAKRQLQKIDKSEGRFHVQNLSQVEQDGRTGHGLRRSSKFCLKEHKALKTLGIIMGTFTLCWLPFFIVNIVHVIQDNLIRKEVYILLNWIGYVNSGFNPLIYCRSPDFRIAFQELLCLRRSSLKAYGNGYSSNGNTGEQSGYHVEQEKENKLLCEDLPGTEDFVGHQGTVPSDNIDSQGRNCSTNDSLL
LANA-H2A inh: blocks KSHV LANA binding to histone H2A/H2B; Q9QR71; cell-free LANA-H2A/H2B peptide, fluorescence polarization; inhibition, % (concentration not given with the values); 320,000 compounds, 0.6% hits; AID 2629; in the data active means inhibition mostly above about 10%, no sharp cut-off; inactive means mostly below about 6.7%;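 further: stock transfer was 7.5 nL into about 10 µL; 0% = median of vehicle wells and 100% = median of positive control wells; one replicate is shown; the record names a cut of 25% in any replicate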
ALR H2O2 inh: human ALR oxidase inhibition via reduced H2O2; purified ALR, DTT oxidation, H2O2 HRP-luminol luminescence; inhibition, % (test concentration not listed); 290,000 compounds, 3.8% hits; AID 485317;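 active means mean and each replicate at 75% or more; inconclusive means only one of the two met; inactive means neither met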;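 further: stock transfer was 7.5 nL into about 7.5 µL; 0% = neutral wells and 100% = wells with inactivated enzyme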
Target sequence (P55789 whole entry, looked up): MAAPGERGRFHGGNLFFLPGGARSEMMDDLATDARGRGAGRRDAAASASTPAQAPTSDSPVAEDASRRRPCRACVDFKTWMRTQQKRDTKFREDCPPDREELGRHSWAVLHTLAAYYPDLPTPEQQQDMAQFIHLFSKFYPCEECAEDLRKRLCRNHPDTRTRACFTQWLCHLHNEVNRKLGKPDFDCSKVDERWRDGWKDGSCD
RanGTP-Impb inh: inhibitors of RanGTP-importin-beta interaction, primary screen, biochemical, FRET, CFP-Ran, YFP-importin-beta, homogeneous; cell-free CFP-Ran/YFP-importin-beta FRET ratio; inhibition, % (no concentration beside the values); 300,000 compounds, 1.1% hits; AID 2216;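 active means most replicates above 15%; inconclusive means exactly half above 15%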;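 further: 0% = DMSO wells and 100% = Ran loaded with GDP instead of GTP; wells of about 40 µL received 100 nL stock; the first replicate is given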
Active calls of the source: *; ? = inconclusive; · = no result given; & = joins results of further samples.

Sequence of screens: HNF4A DNA FP	Vif TR-FRET	B2AR ag	RanGTP-Impb inh	ALR H2O2 inh	LANA-H2A inh	Calb FLC
> COc1ccc(/C=C(\CC(=O)O)c2nc3ccccc3o2)cc1
→ -1.1	-4.6%	-2.8	3.8	-5.1	-1.3	-11.6
> CCCOC(=O)c1ccc(NC(=O)C(=O)NCCN(CC)CC)cc1
→ 3.6	12.7%	-1.9	-2.7	1.6	-3.9	-15.6
> CCOC(=O)N/N=C/c1ccccc1F
→ -1.6	25.8%	2.6	2.4	-2.4	1.8	2.0
> COc1ccc(CC(=O)N/N=C(/C)c2ccco2)cc1
→ 0.7	-7.1%	-1.7	-0.9	1.3	-1.9	-24.8
> CSc1cccc(NC(C)=O)c1
→ -1.0	-12.1%	5.0	6.4	-10.5	3.2	0.2
> COc1cc([N+](=O)[O-])c2nc(C(=O)O)ccc2c1
→ 6.1	-9.7%	-3.6	·	·	·	·
> COc1ccc(O)c(C(=O)c2cc(C#N)c(=O)n(Cc3ccccc3)c2)c1
→ 0.4	21.5%	0.1	0.5	12.9	-1.5	-14.2
> COc1ccc(/C=C/c2c([N+](=O)[O-])c(=O)n(C)c(=O)n2C)c(OC)c1OC
→ 4.2	·	3.3	0.4	0.7	3.8	0.4
> Cc1ccc(NC(=O)CN(C)C2CCCCC2)cc1Br
→ 0.0	·	1.4	-2.2	4.5	0.5	-7.4
> O=C(CNS(=O)(=O)c1cccs1)NCc1ccc(F)cc1
→ 3.0	-3.8%	-4.9	6.1	-13.7	-0.5	0.9
> O=C(CNC(=O)c1nn(Cc2ccccc2)c(=O)c2ccccc12)Nc1ccc(F)c(F)c1F
→ -6.8	1.3%	-7.3	·	·	-2.5	·
> COc1ccc(N2CCN(C(=O)COc3ccc4c(C)cc(=O)oc4c3)CC2)cc1
→ -0.6	21.0%	-5.3	-2.6	25.1	-3.3	0.3
> Cc1ccc2c(CN3CCN(S(=O)(=O)c4ccccc4C(F)(F)F)CC3)cc(=O)oc2c1
→ 2.8	-22.0%	-1.0	·	·	3.9	·
> O=S1(=O)N=C(N/N=C/c2ccccn2)c2ccccc21
→ -0.1	·	11.5	0.3	4.8	3.7	-13.4
> Cc1ccc(C(C)C)cc1OCC(=O)N1CCN(C(=O)c2ccco2)CC1
→ 3.3	7.1%	-3.4	?	3.0	6.2	13.3
> CN(CC(=O)Nc1ccccc1Oc1ccccc1)Cc1ccccc1F
→ 0.0	·	-4.2	0.2	-14.0	1.3	5.8
> CC(C)CC(=O)NC(=S)Nc1cccc2nsnc12
→ 0.9	-29.9%	1.5	0.6	·	·	2.6
> O=C(C[n+]1ccc(Cc2ccccc2)cc1)Nc1ccccc1
→ -0.4	7.0%	1.5	0.4	-9.7	4.5	10.6
> O=C(O)c1ccc(COc2ccc3c4c(c(=O)oc3c2)CCC4)o1
→ -7.3	?	-47.9	7.2	22.8	1.1	9.4
> COc1ccc(-c2cc(=O)c3c(O)c(OC)c(OC)c(OC)c3o2)cc1
→ 1.1	-7.7%	-6.3	·	·	·	·

Retrieved one by one from above, 2 records:
Sequence of screens: HNF4A DNA FP	Vif TR-FRET	B2AR ag	RanGTP-Impb inh	ALR H2O2 inh	LANA-H2A inh	Calb FLC
> COc1ccc(/C=C/c2c([N+](=O)[O-])c(=O)n(C)c(=O)n2C)c(OC)c1OC
→ 4.2	·	3.3	0.4	0.7	3.8	0.4
> COc1ccc(CC(=O)N/N=C(/C)c2ccco2)cc1
→ 0.7	-7.1%	-1.7	-0.9	1.3	-1.9	-24.8

The results go on:
Sequence of screens: HNF4A DNA FP	Vif TR-FRET	B2AR ag	RanGTP-Impb inh	ALR H2O2 inh	LANA-H2A inh	Calb FLC
> COc1cccc(C(=O)OC(C)CN2CCCC2)c1 (centres undefined)
→ -3.0	2.3%	-0.7	-0.1	-1.7	2.5	1.5
> COc1ccccc1/C=C/[C@@H]1C[C@H]2CN(Cc3cccc(Cl)c3)C(=O)[C@]23CCCN13
→ 4.8	3.0%	22.0	-1.2	·	0.2	28.1
> COc1ccc(CC(NC(C)=O)C(=O)NC2CCN(C(=O)c3ccccc3F)CC2)cc1 (centres undefined)
→ 1.5	·	7.5	-2.8	-0.8	1.0	-1.3
> O=C(Nc1ccccc1C(=O)Nc1ccccc1)c1ccccc1F
→ 0.7	-6.7%	-8.4	?	22.2	-3.3	2.5
> Cc1ccc(/C=N/NC(=O)c2cc(C)oc2C)o1
→ 1.6	6.0%	-0.8	6.1	-0.5	1.3	12.2
> Cc1ccc(N2CC(NC(=O)C(=O)c3c(C)[nH]c4ccccc34)CC2=O)cc1C (centres undefined)
→ 3.4	1.8%	5.5	-2.3	0.2	-0.3	-0.4
> CS(=O)(=O)c1ccc(NCCc2ccccn2)c([N+](=O)[O-])c1
→ -2.4	·	-4.0	0.3	-1.5	0.6	3.7
> O=C(O)CCCCCNC(=O)CCn1nnc2ccccc2c1=O
→ -0.9	-0.5%	7.0	-2.1	-1.3	1.7	-1.5
> COc1ccc(NS(=O)(=O)c2cccc(C(=O)N/N=C/c3cn(-c4ccccc4)nc3-c3ccc(OC)cc3)c2)cc1
→ -2.6	-5.4%	-9.0	4.2	-3.6	-1.1	7.6
> Cc1nc(NC(=O)CCc2ccccc2)ccc1Br
→ -0.2	2.4%	-6.1	6.8	-2.1	1.3	-0.7
> O=C(NNS(=O)(=O)c1ccccc1)c1ccccc1-n1cccc1
→ 0.7	·	7.3	?	18.2	1.6	39.7
> CCOC(=O)[C@H]1[C@H]2COc3ccc(Cl)cc3[C@@H]2N2C(=O)CN(Cc3ccc(Cl)cc3)C(=O)[C@@]12C
→ -2.7	·	-3.1	·	0.6	-1.8	·
> CN(C)/C=N/C(=S)Nc1ccccc1F
→ -2.1	-5.6%	51.1*	0.4	-24.6	-0.1	-1.9
> CN(CC(=O)Nc1ncn[nH]1)S(=O)(=O)c1ccc(Br)cc1
→ 1.6	-3.1%	-12.1	4.6	-0.9	9.0	0.4
> CCOC(=O)Nc1ccc2c(c1)N(C(=O)CN1CCN3CCCC3C1)c1ccccc1CC2 (centres undefined)
→ 4.0	6.2%&-10.5%	-3.4	8.4	0.8	-2.3	2.1
> COc1ccc(S(=O)(=O)Nc2ccc(NC(C)=O)cc2)cc1Cl
→ -0.5	·	-3.0	2.3	-5.5	5.0	-5.7
> COc1ccc(C(=O)NCc2ccc(C(=O)O)o2)cc1
→ 0.3	-10.9%	2.9	-3.7	2.9	-4.2	-2.0
> Cc1ccc(C(=O)NC(=S)NNC(=O)c2cccc([N+](=O)[O-])c2)cc1
→ 0.4	1.9%	-2.2	6.5	98.8*	1.0	10.5
> Cc1ccc(C2=NNC(C(O)C(O)C(O)CO)S2)cc1 (centres undefined)
→ 0.0	15.6%	-0.9	-3.3	4.7	0.0	-3.0
> O=C(COc1cccnc1[N+](=O)[O-])c1c[nH]c2ccccc12
→ -2.5	7.8%	1.2	4.6	-11.6	-0.3	18.5
> O=C(NCc1cccnc1)Nc1cccc(Cl)c1
→ 2.2	·	-3.8	-1.1	-2.2	-2.5	2.0
> CC(=O)CSc1nc(C(F)(F)F)cc(=O)n1-c1ccccc1
→ 2.7	4.5%	-5.7	-2.9	-4.0	2.3	-3.7
> CCC1(CC)NC(=O)N(CC(=O)N2CCN(c3ccccc3F)CC2)C1=O
→ 5.2	-9.4%	1.5	·	·	-2.3	·
> COc1ccc(N2CC(O)=C(c3nc(-c4ccc(Br)cc4)cs3)C2=N)cc1
→ 6.1	-59.9%	-0.8	4.4	·	-0.8	-4.4
> COc1ccc(C2/C=C\CN(C(=O)c3ccccc3)CC(=O)N2Cc2cccc(F)c2)cc1 (centres undefined)
→ -0.9	2.5%	3.9	·	·	·	·
> CC(C)/C=N/NC(=O)c1ccc(Cl)cc1
→ 0.5	4.7%	-2.1	2.7	29.1	-2.3	-10.6
> COc1cc(C(c2c(C)[nH][nH]c2=O)c2c(C)[nH][nH]c2=O)ccc1OCc1ccc([N+](=O)[O-])cc1
→ -2.0	?	7.8	-1.0	-5.6	3.0	-7.1
> COc1ccc(/C=N/NC(=O)c2cc(C)oc2C)cc1OC
→ 2.0	-11.5%	-5.8	-3.3	-10.3	-4.5	6.3
> CC1=C(C)C(=O)N(C(C)CCc2ccccc2)C1=O (centres undefined)
→ 4.6	·	-1.9	-1.5	-23.4	11.4	-13.0
> Oc1ccc(/C=N/Nc2ccc(Cl)nn2)c(O)c1O
→ -1.3	·	91.5*	-2.8	·	4.6	?
> O=C(CN1C(=O)C2CCCCC2C1=O)Nc1cc([N+](=O)[O-])ccc1F (centres undefined)
→ -2.0	-1.7%	-0.4	·	·	-0.7	·
> C=CCn1c(=N)n(CC(=O)OC)c2ccccc21
→ -3.2	-0.5%	-6.7	1.4	-2.9	-2.7	21.6
> CCOc1ccccc1/C=N/NC(=O)CNC(=O)c1ccc(S(=O)(=O)N2CCOCC2)cc1
→ 2.5	-5.3%	-2.3	-0.8	-6.0	-2.2	15.5
> COc1ccc(C(=O)NCCSCc2ccccc2Cl)cc1OC
→ -7.4	-4.2%	4.9	4.6	-15.4	-3.4	24.1
> CCOc1ccc(NS(=O)(=O)c2ccc3[nH]cc(C(=O)NC(C)CC)c(=O)c3c2)cc1 (centres undefined)
→ -3.4	19.4%	11.6	1.8	-17.9	0.4	10.0
> O=c1ccc2cc(S(=O)(=O)N3CCN(c4ccccc4F)CC3)ccc2o1
→ -1.0	·	-20.1	-4.4	-2.3	4.9	-3.1
> CCOC(=O)CNC(=S)N1CCn2c(nc3ccccc32)C1
→ -0.2	8.4%	-12.3	2.1	-7.7	2.2	-2.8
> COc1cc(C=C(c2nc3ccccc3s2)c2nc3ccccc3s2)ccc1O
→ -3.1	26.7%	-16.2	0.9	11.5	1.1	-4.9
> CCCn1c(=O)c2c(ncn2C)n(CCC)c1=O
→ 6.2	·	-8.6	·	·	-1.0	·
> CCc1ccccc1NC(=O)c1ccc(OCc2c(C)noc2C)cc1
→ 3.3	-11.0%	4.8	·	0.6	-2.5	·

An excerpt of these results, field by field.
structure: COc1ccc(/C=N/NC(=O)c2cc(C)oc2C)cc1OC
  HNF4A DNA FP: 2.0	Vif TR-FRET: -11.5%	B2AR ag: -5.8	RanGTP-Impb inh: -3.3	ALR H2O2 inh: -10.3	LANA-H2A inh: -4.5	Calb FLC: 6.3

structure: CC1=C(C)C(=O)N(C(C)CCc2ccccc2)C1=O (centres undefined)
  HNF4A DNA FP: 4.6	Vif TR-FRET: ·	B2AR ag: -1.9	RanGTP-Impb inh: -1.5	ALR H2O2 inh: -23.4	LANA-H2A inh: 11.4	Calb FLC: -13.0

structure: Oc1ccc(/C=N/Nc2ccc(Cl)nn2)c(O)c1O
  HNF4A DNA FP: -1.3	Vif TR-FRET: ·	B2AR ag: 91.5*	RanGTP-Impb inh: -2.8	ALR H2O2 inh: ·	LANA-H2A inh: 4.6	Calb FLC: ?

Carrying on.
Sequence of screens: HNF4A DNA FP	Vif TR-FRET	B2AR ag	RanGTP-Impb inh	ALR H2O2 inh	LANA-H2A inh	Calb FLC
> Cc1ccc(S(=O)(=O)NCCCn2ccnc2)cc1C(=O)NC(C)C
→ -1.0	·	2.4	-2.1	4.5	2.9	9.3
> C/C(=N/NC(=O)C1CCCN1C(=O)c1ccc([N+](=O)[O-])cc1)c1ccc(Br)cc1 (centres undefined)
→ 1.9	·	-13.6	3.1	·	·	-4.1
> CCOC(=O)c1cc(-c2cccc([N+](=O)[O-])c2)n[nH]1
→ 1.8	-0.7%	0.4	-10.6	0.5	0.8	-4.8
> COC(=O)CCCC(=O)N1CCC(CO)(CCc2ccccc2)CC1
→ 1.8	·	10.5	-5.2	·	-2.7	4.4
> Cn1c(=O)c2c(nc(Sc3n[nH]c(N)n3)n2Cc2ccccc2Cl)n(C)c1=O
→ 1.1	4.1%	-9.7	0.8	-4.9	-1.7	-1.2

Screening data from PubChem.
